RecA intein inh: blocks M. tuberculosis RecA intein splicing. P9WHJ3. cell-free RecA intein splicing, fluorescence. inhibition, %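 (about 9 µM by stock and volumes)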. 290,000 tested, 0.75% active; in the data active = inhibition above about 30%; inconclusive = no clear call, values can overlap the other calls;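 note: 0% = vehicle wells and 100% = reference inhibitor control wells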
Target sequence (P9WHJ3 whole entry, looked up): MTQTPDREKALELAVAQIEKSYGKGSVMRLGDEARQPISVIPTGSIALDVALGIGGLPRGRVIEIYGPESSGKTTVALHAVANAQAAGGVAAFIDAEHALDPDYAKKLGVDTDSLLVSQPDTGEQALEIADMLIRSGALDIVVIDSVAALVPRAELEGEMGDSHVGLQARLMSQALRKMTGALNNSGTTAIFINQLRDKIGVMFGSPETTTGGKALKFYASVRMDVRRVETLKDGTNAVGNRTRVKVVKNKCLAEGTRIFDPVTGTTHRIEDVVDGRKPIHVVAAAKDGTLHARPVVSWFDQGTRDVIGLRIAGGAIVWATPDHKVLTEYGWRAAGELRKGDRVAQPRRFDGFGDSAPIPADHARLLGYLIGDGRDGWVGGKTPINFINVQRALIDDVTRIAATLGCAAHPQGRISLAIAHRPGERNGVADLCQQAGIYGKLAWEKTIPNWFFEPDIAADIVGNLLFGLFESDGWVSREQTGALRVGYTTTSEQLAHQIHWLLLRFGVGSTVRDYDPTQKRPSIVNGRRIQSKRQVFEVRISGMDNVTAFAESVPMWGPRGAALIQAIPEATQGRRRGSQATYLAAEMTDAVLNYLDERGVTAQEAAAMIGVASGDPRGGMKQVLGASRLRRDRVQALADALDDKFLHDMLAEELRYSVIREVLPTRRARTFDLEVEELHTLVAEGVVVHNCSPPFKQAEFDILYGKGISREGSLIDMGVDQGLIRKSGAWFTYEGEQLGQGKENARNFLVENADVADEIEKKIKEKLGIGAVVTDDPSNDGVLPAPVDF
Mtb growth: M. tuberculosis H37Rv growth inhibitors, H37Rv strain (AID 1626). M. tuberculosis H37Rv growth inhibition; higher % means a stronger effect. inhibition, % at 10 µM; hits with a dose series show IC50 in µM. 220,000 tested, 0.95% active;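 active = confirmed in a dose series; inconclusive = inhibition above 80% but not taken into the dose series; inactive = below 80% or under 30% at every dose of the series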;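 note: bacteria incubated seven days before Alamar blue readout; 0% = bacteria only wells and 100% = bacteria with antibiotic wells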
Mtb betalactam: beta-lactam sensitization of Mtb H37Rv | M. tuberculosis H37Rv growth with meropenem, percent inhibition; hits of this screen are not shown here | inhibition, % at 25 µM | 330,000 tested, 0.27% active;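 active = about 74% or more and at least 40 points above the plate without the antibiotic, then above 30% in a dose series; inconclusive = first-round hits that could not be retested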;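 note: growth measured after seven days incubation then overnight dye step; 0% = bacteria only wells and 100% = bacteria with antibiotic; twin plates without the antibiotic show which effects depend on it; some results filed as inactive read as strong as hits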
Arbovirus inh: arbovirus infection inhibition; arbovirus infection cell-based antiviral screen; inhibition, % at 10 µM; 200,000 tested, 0.37% active; AID 1251;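 active = inhibition from about 30%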;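 note: bluetongue infection of BSR cells; cell survival read as ATP light after 72 h; 0% = infected wells without compound and 100% = uninfected wells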
YopH PTP inh: YopH (Yersinia) phosphatase inhibition. inhibition, %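 (about 10 µM by stock and volumes)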. AID 898. fluorescence Ex485/Em525. 140,000 tested, 0.16% active;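 active = inhibition of 50% or more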;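 note: controls were vehicle for no effect and minimum signal wells for full effect; inactives centre near -20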
Arbovirus inh repeat: also measured in Arbovirus inh; calls as there; inhibition, %; measured here: 10K subset replicate screen; many hits read low in the repeat;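 first of two repeat runs on a subset; 0% = infected and 100% = uninfected wells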
Active calls of the source: *; ? = inconclusive; nt = no result given. Some of the compounds tested (hit frequency here may not be typical).

SMILES	RecA intein inh	Mtb growth	Mtb betalactam	Arbovirus inh	YopH PTP inh	others
Cc1ccc(C2Nc3cccc4cccc(c34)N2)cc1	-1.5	nt	2.8	nt	nt
COC(=O)C1=C(C(=O)OC)[C@@H]2N(C)c3ccccc3[C@@]23C[C@@H](C(=O)OC)N(C(=O)COCc2ccccc2)C3=N1	-0.5	-5.7%	-3.3	nt	nt
Cc1cc(NC(=O)c2cccc(F)c2)ncc1NC(=O)c1ccco1	0.0	-1.7%	3.0	-12.0	-15.5
COc1ccc(N(CC(=O)Nc2ccc(C)cc2C)S(=O)(=O)c2c(C)n[nH]c2C)cc1	-1.2	nt	5.2	nt	nt
O=C(CNCc1ccc(Cl)cc1)NCc1ccco1	0.9	-0.7%	6.2	3.0	-22.1
COc1ccccc1NC(=O)C(=O)Nc1ccccn1	0.4	-0.1%	-0.9	-1.8	-46.1
CCn1c(SCC(=O)Nc2ccc(NC(C)=O)cc2)nnc1C1CC1	0.7	2.3%	-1.6	4.7	-44.9
CN(C)CCNc1ncnc2c1cnn2-c1ccc(Cl)cc1	-1.2	2.1%	-3.8	-27.0	6.5	Arbovirus inh repeat=-23.2
Nn1c(Cc2cccc3ccccc23)nnc1SCC(=O)N1CC(=O)Nc2ccccc21	-4.1	-17.9%	-19.3	4.8	-16.5
O=C(c1cccc([N+](=O)[O-])c1)N1CCN(C/C=C/c2ccccc2)CC1	-0.2	-4.3%	0.4	nt	nt
Cc1cc(S(=O)(=O)NCCCn2ccnc2)c(C)cc1Cl	-1.7	nt	6.3	nt	nt
S=C(N/N=C/c1cccc2ccccc12)Nc1cccc(Cl)c1	-0.4	0.6%	-1.4	nt	nt
C/C(=N\NC(=O)C1(C)CC1(Br)Br)c1cccc(NC(=O)C(C)(C)C)c1 (stereo not drawn)	-0.5	1.4%	1.3	-5.0	-27.8
CCOc1ccccc1CN1CCNC(=O)C1CC(=O)N(C)CCc1cnn(C)c1 (stereo not drawn)	-5.4	nt	-1.9	nt	nt
CCCOC(=O)c1c(NC(=O)/C=C/c2cnn(C)c2C)sc(C(=O)OCC)c1C	-2.7	7.7%	28.3	-20.1	-5.5

Next section; it opens with the two that closed the last part.
SMILES	RecA intein inh	Mtb growth	Mtb betalactam	Arbovirus inh	YopH PTP inh	others
CCOc1ccccc1CN1CCNC(=O)C1CC(=O)N(C)CCc1cnn(C)c1 (stereo not drawn)	-5.4	nt	-1.9	nt	nt
CCCOC(=O)c1c(NC(=O)/C=C/c2cnn(C)c2C)sc(C(=O)OCC)c1C	-2.7	7.7%	28.3	-20.1	-5.5
CCC(=O)Nc1nnc(SCc2ccc(F)cc2)s1	0.3	7.4%	-6.0	-8.7	-2.5
O=C(OCC(=O)N(CCc1ccccc1)Cc1ccccc1)c1ccccc1O	9.2	nt	90.8	nt	nt
CN(C)CCNC(=O)c1cccc(S(=O)(=O)Nc2ccccc2F)c1	-7.4	-5.4%	0.1	1.9	nt
O=C(NCc1ccco1)c1nc2c(nnn2Cc2cccc(Cl)c2)c(=O)[nH]1	1.4	-8.1%	4.9	-0.4	-12.5
CCCc1[nH]n(-c2ccc([N+](=O)[O-])cc2)c(=O)c1C=NCCc1ccc(OC)c(OC)c1	-1.5	27.0%	7.4	1.9	nt
O=C1CC(c2ccc3c(c2)OCO3)C2=C(CCCC2=O)N1 (stereo not drawn)	-5.6	0.1%	-0.4	-1.9	-40.0
O=C(Cc1n[nH]c(=O)c2ccccc12)NCc1ccccc1	-1.8	1.1%	-2.7	8.9	nt
CCOC(=O)c1c(C)[nH]c(C)c1C(=O)CSc1nnc(-c2ccc(OC(F)F)cc2)o1	0.4	-6.7%	16.9	-5.1	-4.5
O=c1[nH]c(N2CCCCC2)nc2ncn(Cc3ccccc3)c12	-0.5	-8.0%	1.8	nt	nt
Cc1ccccc1Nc1nc(-c2sc(NC(=O)c3cccc(Cl)c3)nc2C)cs1	1.0	-6.7%	71.2	-0.1	13.8
CCC(C)c1ccc(NC(=O)C2CCCN(c3ncccn3)C2)cc1 (stereo not drawn)	3.5	1.1%	2.8	6.2	-38.0
CCn1c2ccccc2c2cc(NC(=O)CSc3nnc(-c4cccc(Cl)c4)o3)ccc21	4.7	nt	99.0	-9.8	-21.0
COc1ccc(CCNC(=O)[C@H](CCSC)NC(=O)N2CCn3c2nc2ccccc23)cc1OC	1.1	nt	1.3	nt	nt
c1ccc(OCCCc2nc(-c3cccnc3)no2)cc1	0.7	13.7%	2.0	-0.4	14.0
Cc1ccccc1NC(=O)Cc1nc(COC(=O)c2cc([N+](=O)[O-])ccc2NCCO)cs1	-0.6	nt	4.0	nt	nt

Grouped by structure: the compounds so far with two or more sulfur atoms.
SMILES	RecA intein inh	Mtb growth	Mtb betalactam	Arbovirus inh	YopH PTP inh	others
CCC(=O)Nc1nnc(SCc2ccc(F)cc2)s1	0.3	7.4%	-6.0	-8.7	-2.5
Cc1ccccc1Nc1nc(-c2sc(NC(=O)c3cccc(Cl)c3)nc2C)cs1	1.0	-6.7%	71.2	-0.1	13.8

The list continues:
SMILES	RecA intein inh	Mtb growth	Mtb betalactam	Arbovirus inh	YopH PTP inh	others
CN(C)CCn1c(NC(=O)c2ccc(Cl)cc2)nc2ccccc21	-0.3	65.2%	57.2	-19.3	-39.0
COc1ccc(-n2c(SCC(=O)N/N=C(\C)c3cccnc3)nc3ccccc3c2=O)cc1	-1.7	-8.0%	1.6	nt	nt
O=C(NCCN1CCCC1)c1ccc(Cl)cc1Cl	-2.8	nt	13.4	nt	nt
O=C(NC1CCS(=O)(=O)C1)c1ccc(S(=O)(=O)N2CCCCC2)cc1 (stereo not drawn)	-6.1	-10.7%	-3.0	1.0	nt
O=C(Oc1cccc(F)c1)c1ccc2c(=O)n3c(nc2c1)CCC3	1.7	nt	72.9	nt	nt
CCOC(=O)N1CCC(NC(=O)C2CCN(C(=O)c3cc4sccc4n3CC)CC2)CC1	-5.3	-1.9%	-8.9	nt	nt
COc1ccc(CSc2n[nH]c(C)n2)cc1[N+](=O)[O-]	0.0	11.2%	1.1	-5.6	-16.7
CCc1ccccc1N(CC(=O)NCCc1ccccc1)C(=O)CCC(=O)Nc1ccccn1	4.2	nt	-7.0	nt	nt
Cc1ccc(S(=O)(=O)n2nc(OC(=O)C(C)(C)C)cc2N)cc1	1.2	1.5%	2.3	3.8	-46.3
COc1ccccc1N1CN(CCc2ccccc2)CNC1=S	4.7	5.1%	-0.9	nt	nt
COc1cc(C(=O)Nc2oc(-c3ccccc3)c(-c3ccccc3)c2C#N)cc(OC)c1OC	1.7	11.8%	11.5	11.3	-10.8
NS(=O)(=O)c1ccc(NC(=O)COC(=O)CCc2ccccc2)cc1	1.2	-1.8%	-2.1	nt	nt
CCOCCCNC(=O)C(NC(=O)c1ccc(NC(C)=O)cc1)c1ccc(OC)cc1 (stereo not drawn)	-0.7	28.0%	1.9	4.9	-15.8
Cc1c[nH]c2cccc(OCC(O)CNC(C)(C)C)c12 (stereo not drawn)	-1.5	-6.0%	-9.4	1.7	-21.8
COc1cc(OC)cc(C(=O)NCC2CCCN(Cc3ccc(SC)cc3)C2)c1 (stereo not drawn)	1.6	nt	0.6	nt	nt
CCOC(=O)CCSc1nc(C)c2ccccc2n1	-2.8	1.7%	0.2	7.3	-28.6
COc1ccccc1-n1cnnc1SCC(=O)c1c[nH]c2ccccc12	1.7	78.6%	-0.4	5.6	-18.1
Cc1cccc(CSc2nnnn2-c2ccccc2)c1	6.6	10.3%	-3.0	6.5	-8.1
O=C(O)c1cc2ccccc2oc1=O	3.5	-1.5%	-0.7	9.2	-37.5	Arbovirus inh repeat=1.5
N#C/C(=C\c1ccc(N2CCOCC2)o1)C(=O)NCCc1ccccc1	-10.8	1.5%	1.2	2.2	nt
C#CCOc1ccc2c(C)cc(=O)oc2c1	-1.2	-13.2%	-0.1	4.8	2.1
O=C(NCc1ccco1)C1(S(=O)(=O)c2ccc(Cl)cc2)CC1	0.0	-5.7%	3.2	-1.6	-11.7
COc1cc(NS(=O)(=O)c2ccc(NC(=S)NC(=O)c3sc4ccccc4c3Cl)cc2)ncn1	nt	38.1%	-5.8	0.0	-43.0
Cc1nc2cc([N+](=O)[O-])ccc2c(=O)n1-c1ccccc1[N+](=O)[O-]	-2.8	5.4%	0.0	3.0	nt
COc1ccc(C(=O)N/C(=C\c2cn(S(=O)(=O)N(C)C)c3ccccc23)C(=O)N2CCOCC2)cc1	2.7	nt	-1.2	nt	nt
C=CCN(CC=C)C(=S)Nc1cc(Cl)ccc1OC	2.3	-1.3%	2.8	1.9	nt
CCOCCCNC(=S)NCCCNc1nc2ccc(C)cc2cc1C#N	-46.2	-4.8%	24.6	-10.1	nt
CCOC(=O)c1cc2oc(C(c3nnnn3C3CCCCC3)N3CCOCC3)cc2[nH]1 (stereo not drawn)	nt	10.4%	9.7	12.2	-15.8
CCn1c(=O)c2cc(S(=O)(=O)NC3CCCCC3)ccc2n(CC)c1=O	-1.0	0.8%	-11.7	3.6	-31.0
COc1cc(C(=O)N/C(=C\c2cn(S(=O)(=O)N(C)C)c3ccccc23)C(=O)NCCCO)cc(OC)c1OC	-1.8	-2.6%	4.7	-2.4	nt
Cc1cc(-c2nnc(CCC(=O)N(CC3CCC3)CC3CCCO3)o2)no1 (stereo not drawn)	-1.7	-10.3%	-11.0	3.8	nt
Cn1c(CC(=O)Nc2ccccc2C(F)(F)F)c(Sc2ccccc2)c2ccccc21	2.2	-4.7%	-3.2	-5.0	-14.1
c1ccc(CNc2nc(NCc3ccccc3)c3ccccc3n2)cc1	60.0*	?	94.1	nt	nt
Cc1ccc(C(=O)N(CC(=O)Nc2ccc(Cl)c(Cl)c2)Cc2ccco2)cc1	-3.1	-1.6%	2.4	-4.0	-16.8
O=C(CN(CC1CCCO1)C(=O)Cn1nnc(-c2ccc(F)cc2)n1)NC1CCCCC1 (stereo not drawn)	1.2	-1.4%	-0.2	-3.5	-12.2
CS(=O)(=O)N(CC(=O)N/N=C/c1cccc2c1OCCO2)c1ccccc1Br	1.2	-8.6%	-10.2	8.4	-14.5
CCOc1ccc(N2CC(C(=O)N/N=C/c3sccc3C)CC2=O)cc1 (stereo not drawn)	-0.8	-7.7%	3.0	nt	nt
COc1ccc(Br)cc1S(=O)(=O)N1CCN=C1C	-1.7	-15.8%	-12.6	3.1	-27.1	Arbovirus inh repeat=4.3
CCCn1nnc(NC(=O)c2ccc(-c3cc(Cl)ccc3Cl)o2)n1	-0.1	3.0%	1.8	2.1	nt
O=C(Cn1cc2c(n1)CCCC2)NC1CCN(Cc2ccccc2)CC1	-1.4	-5.9%	0.0	-4.7	-39.0	Arbovirus inh repeat=-1.9
O=C1c2cccc3cccc(c23)C(=O)N1CCN1CCN(CC(O)COCc2ccc(Cl)cc2)CC1 (stereo not drawn)	1.4	?	99.4	-14.2	-20.6
CCOc1ccccc1NC(=O)c1cnc2n(c1=O)CCS2	-5.0	2.6%	31.8	-7.3	-12.4
[N-]=[N+]=CC(=O)c1ccnc(C(=O)C=[N+]=[N-])c1	nt	-6.1%	0.6	8.0	-33.8
CCOC(=O)c1c(NC(=O)Cn2nnc(-c3ccc(Cl)cc3)n2)sc(CC)c1C	nt	10.6%	-13.2	2.1	-0.2
CCOC(=O)CSc1nnc2cc(C)c3ccccc3n12	1.8	-1.4%	-11.3	4.0	36.5
N/C(=N\OC(=O)COc1ccccc1)c1ccc(Cl)cc1	3.5	9.3%	5.5	-2.3	-29.4
CN(CCCC1CCCC1)C(=O)c1cc(COc2ccc(F)cc2F)on1	-0.6	nt	7.1	nt	nt
CCn1cc(C(=O)NCCCN2CCC(C)CC2)c2cc(OC)c(OC)cc2c1=O	-1.6	-8.4%	-6.0	-1.4	-50.9	Arbovirus inh repeat=-1.8
COc1ccc(-c2c(C)c3cc(O)ccc3oc2=O)cc1	-2.4	nt	3.4	nt	nt
Nc1nc(-c2cccnc2)nc(N2CCCCC2)n1	-1.9	-14.4%	22.0	6.2	-36.5
O=C(CNc1cccc(Cl)c1)c1ccc(Cl)cc1	3.3	-1.8%	7.0	2.8	-26.9
COc1cc2c(cc1OC)CN(C(=O)CCCOc1ccc(Cl)cc1Cl)CC2	11.7	5.5%	-3.0	-11.5	-17.8
Cc1cc(C(=O)N/N=C/c2ccc(-c3ccc(C)c(Cl)c3)o2)n[nH]1	12.4	56.6%	?	nt	nt
O=S(=O)(c1ccc(NC(=S)NCCc2ccccc2)cc1)N1CCOCC1	-1.9	7.9%	5.4	1.6	-8.7
CCCNC(=O)c1ccc(S(N)(=O)=O)cc1	-1.0	2.2%	-4.1	nt	nt
CCCS(=O)(=O)N1CCC(C(=O)NCCc2ccc(C)cc2)CC1	3.0	1.5%	-2.3	2.7	-26.8
CCCCCCn1c(O)c(C=Nc2ccccc2N2CCOCC2)c(=O)[nH]c1=S	-7.2	-2.6%	-3.5	nt	nt
CC(C)(C)Nc1nc(-c2ccc3c(c2)CCN3C(=O)C2CC2)cs1	-0.2	nt	62.4	nt	nt

High-throughput results deposited in PubChem by several laboratories.
